MenB inh = blocks the Mycobacterium tuberculosis MenB enzyme; P9WNP5; inhibition, %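 (about 12 µg/mL by stock and volumes)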; MenB enzyme assay, absorbance read-out; some hits fall short of the stated cut; actives 0.43% (n = 100,000);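 active = mean of two replicates above 30%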;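 also: 0% = no compound and 100% = wells with inactive enzyme; the first replicate is given; strong numbers were not always called active; inactives centre near -10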
Target sequence (P9WNP5 whole entry, looked up): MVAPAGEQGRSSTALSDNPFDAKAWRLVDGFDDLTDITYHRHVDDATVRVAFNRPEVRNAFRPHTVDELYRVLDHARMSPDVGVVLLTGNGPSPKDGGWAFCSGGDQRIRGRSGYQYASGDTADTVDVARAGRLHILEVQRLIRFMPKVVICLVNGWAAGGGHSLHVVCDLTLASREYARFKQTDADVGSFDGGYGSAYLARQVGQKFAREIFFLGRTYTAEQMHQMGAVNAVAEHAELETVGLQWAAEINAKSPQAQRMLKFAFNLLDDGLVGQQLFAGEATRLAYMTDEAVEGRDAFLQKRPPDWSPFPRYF
PV pol inh = inhibitors of poliovirus RNA polymerase binding and polymerization; poliovirus polymerase elongation, fluorescence polarization; stronger effect = lower value; % elongation, % (compound at 16.7 µg/mL); actives 0.66% (n = 150,000); AID 588519; in the data active = % elongation below about 90%; also: some results filed as inactive read as strong as hits
Mtb MbtI inh = inhibitors of Mycobacterium tuberculosis siderophore enzyme MbtI. P9WFX0. purified MbtI enzyme, fluorescence intensity read-out. inhibition, %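 (about 17 µg/mL by stock and volumes)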. actives 0.89% (n = 100,000). AID 493033;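 active = above 50% in both replicates, above 80% if mildly self-fluorescent; inactive = the rest, strongly fluorescent compounds included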;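 also: 0% = mean of negative and 100% = mean of positive controls; one replicate is shown; some compounds called inactive have numbers as strong as hits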
Target sequence (P9WFX0 whole entry, looked up): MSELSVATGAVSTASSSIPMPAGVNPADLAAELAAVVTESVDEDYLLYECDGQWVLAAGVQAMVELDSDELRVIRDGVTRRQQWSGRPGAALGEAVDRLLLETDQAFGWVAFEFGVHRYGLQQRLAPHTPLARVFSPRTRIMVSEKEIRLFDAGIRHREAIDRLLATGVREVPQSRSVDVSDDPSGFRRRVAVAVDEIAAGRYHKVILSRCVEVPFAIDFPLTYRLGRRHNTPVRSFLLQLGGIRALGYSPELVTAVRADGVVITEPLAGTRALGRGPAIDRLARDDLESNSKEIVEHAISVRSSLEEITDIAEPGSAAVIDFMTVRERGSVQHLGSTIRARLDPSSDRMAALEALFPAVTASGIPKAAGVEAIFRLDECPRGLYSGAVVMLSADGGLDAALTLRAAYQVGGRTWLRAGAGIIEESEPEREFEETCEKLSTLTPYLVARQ
PV pol inh intensity = second read-out of PV pol inh, no call of its own (marks repeat the call); % elongation; measured here: total intensity read-out; formula for this scale not given here;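 total fluorescence in place of polarization; lower means less elongation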
* marks the source's active call; other numbers are inactive results; · = no result given; & = joins results of further samples.

SMILES	MenB inh	PV pol inh	PV pol inh intensity	Mtb MbtI inh
O=C(Nc1ccc(C(=O)NCC2CCCO2)cc1)C1=CSCCO1 (stereo not drawn)	-20	103	103	6
CC(C(=O)N(C(C)C)C(C)C)N1CCN(C)CC1 (stereo not drawn)	-23	101	96	-1
O=c1[nH]n(-c2ccccc2)c(=O)n1Cc1ccccc1F	2	96	94	-11
CCc1c(C)sc(NC(=O)/C=C/c2ccc(F)cc2)c1C(=O)OC	-18	99	107	·
Cc1cc(C)c2oc(-c3cc(NC(=O)CC(C)C)ccc3Cl)nc2c1	6	102	105	10
O=c1cnnc(SCc2ccccc2)[nH]1	4	100	109	15
COc1cc(OC)cc(-c2nnc(NC(=O)c3ccc(S(=O)(=O)N4COCC4(C)C)cc3)o2)c1	-6	100	101	1
COc1ccc(-c2n[nH]c(=S)[nH]c2=O)cc1	-35	94	95	77*
O=Cc1c2[nH]c3ccccc3c2cc2[nH]c3ccccc3c12	2	89&95	136&115	-27
COC(=O)CSc1nnc(-c2ccc(NC(C)=O)cc2)o1	-7	105	99	2
Fc1ccc(Sc2c(F)c(F)nc(N3CCNCC3)c2F)cc1	-8	97	103	·
CSc1nc2c(sc(=S)n2-c2ccccc2C)c(=O)n1-c1ccccc1C	-3	97	90	62*
O=C(CSc1nc2ccccc2o1)NCC1COc2ccccc2O1 (stereo not drawn)	-17	103	94	19
CC1=Nc2cc(C(=O)NCc3cccnc3)ccc2Sc2ccccc21	-12	104	109	-6
CCc1ccc(Nc2cc(=O)n(C3CCCCC3)c(=O)[nH]2)cc1	-1	103	101	4

One compound at a time (already shown):
Fc1ccc(Sc2c(F)c(F)nc(N3CCNCC3)c2F)cc1 across the screens: MenB inh = -8; PV pol inh = 97; PV pol inh intensity = 103; Mtb MbtI inh = ·
CSc1nc2c(sc(=S)n2-c2ccccc2C)c(=O)n1-c1ccccc1C across the screens: MenB inh = -3; PV pol inh = 97; PV pol inh intensity = 90; Mtb MbtI inh = 62*

Going on with the list:
SMILES	MenB inh	PV pol inh	PV pol inh intensity	Mtb MbtI inh
CCOC(=O)c1cccc(N2C(=O)C3C(C(=O)NC4CC4)C4(C)C=CC3(O4)C2C(=O)NC(C)(C)C)c1 (stereo not drawn)	-47	101	104	-10
CC(C)(C)c1ccc(-c2nc(=S)[nH][nH]2)cc1	5	97	102	-50
CCN(CC(O)COc1ccc(OCC(O)CN(CC)C2CCCCC2)cc1)C1CCCCC1 (stereo not drawn)	7	101	104	-15
CN1CCN(S(=O)(=O)c2ccc(Oc3ccc(Br)cc3Cl)nc2)CC1	-9	101	99	8
CN(Cc1ccccc1)Cc1nnc(-c2ccccc2)o1	-6	102	103	-5
CC(C)NC(=O)CC(C)c1ccccc1 (stereo not drawn)	-4	101	101	-12
OCc1ccccc1CN1CCOCC1	5	103	102	·
O=C(NC1CCCC1)c1cc(-c2ccc(F)cc2)no1	16	103	101	3
O=C(NCc1ccc2c(c1)OCO2)c1ccccc1CSc1nc2ccccc2o1	-29	101	109	6
Nc1ccc2c(c1)nc(-c1ccccc1)c1cc(N)ccc12	-42	112	209	·
Cc1ccc(CNC(=O)CSc2nc3cc(S(=O)(=O)N4CCCCC4)ccc3o2)cc1	16	103	100	20
CC(C)(C)C(=O)/C(C#N)=C/Nc1ccc(Cl)cn1	-21	107	105	-4
CC(C)CCNC(=O)C1c2ccccc2C(=O)N(C)C1c1cn(C)c2ccccc12 (stereo not drawn)	-1	99	102	13
CN1CCc2nc3sc(C(=O)c4ccc5c(c4)OCO5)c(N)c3cc2C1	-130	106	121	15
CN(C(=O)CSCc1ccccc1)c1ccccc1	-10	101	104	8
N/C(=N\OC(=O)CSc1ccccc1)c1ccncc1	-10	101	101	-6
CC1SC2(OC1=O)C1CC3CC(C1)CC2C3 (stereo not drawn)	-29	102	100	-8
CCN1CC=C(c2c[nH]c3ccccc23)CC1	-33	102	100	1
CC(=O)NN1C(=O)c2ccccc2NC1c1ccccn1 (stereo not drawn)	-7	102	100	116
Cc1cc(N=Cc2c(O)n(-c3ccccc3F)c(=O)c3ccccc23)n[nH]1	-181	104	108	3
O=CNC(Cc1ccccc1)C(=O)O (stereo not drawn)	-15	104	100	-3
Cc1c(CCNC(NC(=O)c2ccc(Cl)cc2)(C(F)(F)F)C(F)(F)F)c2ccccc2n1C	-18	101	105	·
CC(=O)Nc1ccc2oc(=O)ccc2c1	·	104	108	21
S=c1nc(Cc2ccc(Cl)cc2)[nH][nH]1	-51	93	98	97*
c1cnc2c(CN3CCCC3)cccc2c1	·	103	106	-11
CCC(C)NC(=O)CC12CC3CC(C1)CC(CC(=O)NC(C)CC)(C3)C2 (stereo not drawn)	·	104	107	-14
CC(C)COc1ccc(-c2nnn(CC(=O)N3C(C)CCCC3C)n2)cc1 (stereo not drawn)	-8	102	101	-9
CCN=c1scc(-c2cc(C)c(C)cc2C)n1/N=C/c1ccc(C)o1	-82	100	106	-1
COc1ccc(CSc2cccc[n+]2[O-])cc1F	-3	106	109	13
OCn1c(=S)sc2ccccc21	·	102	96	93*
CC1CCCCC1NC(=O)c1nn(C)c2c1CS(=O)(=O)c1ccccc1-2 (stereo not drawn)	6	100	101	21
CC(C)(C)c1cc(C(c2ccccn2)N2CCCC2)cc(C(C)(C)C)c1O (stereo not drawn)	-9	99	98	-3
CN1C2=C(C#N)C(=O)CN2c2ccccc21	7	102	98	73
CCNS(=O)(=O)c1ccc(CCC(=O)Nc2ccc(C(=O)OC)cc2)cc1	2	100	100	-20
Clc1ccc(C2Oc3ccccc3C3CC(c4ccco4)=NN32)cc1 (stereo not drawn)	-2	103	112	9
CCC(C)(C)c1ccc(OC2CSC2)cc1	-21	106	93	·
Cc1cccc(C)c1OCC(C)N (stereo not drawn)	-55	97	99	-3
Cc1ccc(C2=NN(C(=O)c3ccc(Br)o3)C(c3ccc(C)cc3)C2)cc1 (stereo not drawn)	-23	103	103	-13
COC(=O)c1cc(N2C(=O)C3C4C=CC(C)(O4)C3C2=O)ccc1Cl (stereo not drawn)	-7	104	108	81*
O=C(N1CCN(c2ccccn2)CC1)C12CC3CC(CC(C3)C1)C2	23	100	99	92
Cc1ccc(C)c(C(C)c2ccc(C)nc2)c1 (stereo not drawn)	-2	98	102	8
NC(=O)c1ccccc1NC(=O)c1c(Cl)nc2sccn12	·	101	100	-15
COCCN=c1scc(-c2ccc(O)c(C(N)=O)c2)n1/N=C/c1cccnc1	-61	112	102	22
O=C1CCc2ccccc2N1	3	99	104	6
Nc1c2c(nc3c1CCC3)CCCC2	-10	101	103	2
CCC(C)(C)NC(=O)Cc1cccs1	-2	100	102	1
O=C(NCC1CCCO1)c1cnn2c(C(F)(F)F)cc(-c3ccccc3)nc12 (stereo not drawn)	-25	102	103	-10
CC(c1ccccc1)N1CCC(CN)C1 (stereo not drawn)	9	101	105	-11
CCN(CC)C(=O)Oc1nc(-c2ccccn2)nc(COC)c1CC1CC1	-23	100	101	-6
CCOC(=O)c1nc(NC2CCN(Cc3ccccc3)CC2)c2ccccc2n1	-14	102	101	-2
Cc1ccc(S(=O)(=O)CCSc2n[nH]c(=O)n2-c2ccc3c(c2)OCCO3)cc1	-16	103	104	13
COc1cc(C=C2C(=O)NC(=O)NC2=O)ccc1OCC(C)C	-41	103	100	45
COc1cccc(NC(=O)c2cc3cc4c5c(c3oc2=N)CCCN5CCC4)c1	-7	81	191	-10
COc1ccc(C2(CNS(=O)(=O)c3ccc(C)cc3)CCOCC2)cc1	-11	103	104	·
CSC1=NCCN1Cc1ccccc1	3	105	99	1
C[C@H]1O[C@@H](O[C@H]2[C@@H](O)C[C@H](O[C@H]3[C@@H](O)C[C@H](O[C@H]4CC[C@]5(C)C6C[C@@H](O)[C@]7(C)[C@@H](C8=CC(=O)OC8)CC[C@]7(O)C6CC[C@@H]5C4)O[C@@H]3C)O[C@@H]2C)C[C@H](O)[C@@H]1O (stereo partly drawn)	8	100	104	-14
COCc1c(C(=O)N2CCN(CCOc3ccccc3)CC2)oc2ccccc12	-20	103	106	3
CC1Cc2ccccc2N1C(=O)CCS(=O)(=O)c1cc2c(cc1Cl)NC(=O)CO2 (stereo not drawn)	8	99	103	-3
O=S(=O)(NC1CCCCC1Sc1ncccn1)c1ccccc1 (stereo not drawn)	-23	99	105	5
O=C(CCN1N=C(c2ccccc2)CCC1=O)NCCc1ccccc1	-1	101	104	-4

(listing goes on)
SMILES	MenB inh	PV pol inh	PV pol inh intensity	Mtb MbtI inh
COc1c2ccoc2nc2c(OC)c(OC[C@H](O)C(C)(C)O)ccc12	0	97	103	59
CCN1Cc2cccc(CNc3ccc(C)c(Cl)c3)c2C1	-20	102	103	2
CCOc1ccccc1NC(=O)CCn1cnnn1	1	101&101	106&103	-14
N#CSc1ccc2nc(N)sc2c1	1	94	91	53*
COc1ccc2cc3[n+](cc2c1OC)CCc1cc2c(cc1-3)OCO2	-7&-26	99&100	101&100	-4&-10
CCC(C)(C)c1cnc(NC(C)=O)s1	·	103	100	24
O=C(COC(=O)c1cn(-c2ccccc2)nc1-c1ccccc1)c1ccc(Br)cc1	-3	102	93	·
CCOc1ccccc1N(CC)C(=O)Cn1ncc2c(=O)oc3ccccc3c21	0	101	99	2
CC(NCCN1CCNCC1)c1cc(C(C)(C)C)cc2c1CCC2(C)C (stereo not drawn)	-8	105	109	·
CCNC(=S)N1CCN(C(=O)C(Cc2ccccc2)NC(C)=O)CC1 (stereo not drawn)	-14	102	104	-6
Cc1ccc(NC(=O)C2CCCN(S(=O)(=O)c3ccc4[nH]c(=O)ccc4c3)C2)nc1 (stereo not drawn)	8	101	99	5
Cc1nnc2sc(SCc3ccccc3)nn2c1=O	3	102	106	0
CN1N=C(c2ccccc2)CC1=O	-84	100	106	-2
CC(C)(C)NC(=O)Cc1n[nH]c(=O)c2ccccc12	-15	107	107	0
CCN(CC)CCCNc1ncnc2sc3c(c12)CC(C)CC3 (stereo not drawn)	-7	106	107	·
O=C(Cc1ccccc1)Nc1nc(-c2cccs2)cs1	-16	103	108	-2
Nc1ccc(Cn2ccnc2)cc1	-2	101	100	-6
COC(=O)c1cc(S(=O)(=O)NCC2CCCO2)c[nH]1 (stereo not drawn)	-1	101	98	-14
CC(=O)N1CCC(N(C(=O)NC2CCCC2)C(C)C)CC1	6	101	98	-1
CC(O)C(=O)Nc1cc(Cl)cc(Cl)c1 (stereo not drawn)	8	102	95	4
CCNc1cccc2c1C(=O)N(C)C2=O	-157	76	193	15
C=CCn1c(SC)nc2c(c1=O)C1(CCCCC1)Cc1ccccc1-2	-8	102	99	-10
Cc1ccc(OCCNC(=O)c2ccc(NC(=O)CC#N)cc2)cc1	-48	·	·	-15
Cc1ccc(-c2ccc(OCc3c(C)noc3C)c(C)c2)cc1	-12	95	101	0
c1cncc(-c2nc(NCc3ccco3)c3ccccc3n2)c1	-21	100	100	12
O=C1CN(C(=O)/C=C/c2ccc(Br)cc2)CCN1	-9	·	·	10
CCOC(=O)c1c(CSc2nnc(CN3CCCCCC3=O)n2CC)nc2ccccc2c1C	-1	102	110	-9
CN(C)c1nc(SCCOC(=O)COc2ccc(Cl)cc2Cl)nc(N(C)C)n1	-35	98	94	1
O=C(NCCc1ccccc1)c1nnc(Cc2ccc(F)cc2)o1	-15	101	107	-6
COC(=O)C1=C(NC(=O)c2ccc(S(=O)(=O)N3CCOCC3)cc2)CCS1	-34	100	106	15

Grouped by structure: the compounds so far containing a furan ring, fused or not
SMILES	MenB inh	PV pol inh	PV pol inh intensity	Mtb MbtI inh
CCN=c1scc(-c2cc(C)c(C)cc2C)n1/N=C/c1ccc(C)o1	-82	100	106	-1
Clc1ccc(C2Oc3ccccc3C3CC(c4ccco4)=NN32)cc1 (stereo not drawn)	-2	103	112	9
Cc1ccc(C2=NN(C(=O)c3ccc(Br)o3)C(c3ccc(C)cc3)C2)cc1 (stereo not drawn)	-23	103	103	-13
COCc1c(C(=O)N2CCN(CCOc3ccccc3)CC2)oc2ccccc12	-20	103	106	3
COc1c2ccoc2nc2c(OC)c(OC[C@H](O)C(C)(C)O)ccc12	0	97	103	59
c1cncc(-c2nc(NCc3ccco3)c3ccccc3n2)c1	-21	100	100	12

Later entries.
SMILES	MenB inh	PV pol inh	PV pol inh intensity	Mtb MbtI inh
Cc1noc(C)c1-c1nc(COc2ccc(/C=C(/C#N)S(C)(=O)=O)cc2)no1	-2	100	109	-7
CCc1ccccc1NC(=O)c1ccc2snnc2c1	-26	102	106	-1
COc1ccc(-n2nc3c(c2NC(=O)/C=C\c2ccc4c(c2)OCO4)CS(=O)(=O)C3)cc1	-13	102	92	10
O=C(c1ccc(NS(=O)C23CC4CC(CC(C4)C2)C3)cc1)N1CCCC1 (stereo not drawn)	-12	98	100	1
c1ccn(-c2ccc(-c3ccc(-n4cccc4)cc3)cc2)c1	-61	99	102	11
CCc1ccc(NC(=O)CSc2ccc(-c3ccco3)nn2)cc1	6	99	102	13
c1ccc(-c2noc(CN3CCCC3c3cccs3)n2)cc1 (stereo not drawn)	-26	108	105	-5
Cc1cc(C(=O)OCC(=O)N2c3ccccc3Sc3ccccc32)c2ccccc2n1	-15	102	106	-8
CCn1c(O)c(/C=c2/c(C)c(C#N)c3nc4ccccc4n3c2=O)n(CC)c1=S	-39	69	195	30

Molecules shown so far with a CF3 group (2):
SMILES	MenB inh	PV pol inh	PV pol inh intensity	Mtb MbtI inh
Cc1c(CCNC(NC(=O)c2ccc(Cl)cc2)(C(F)(F)F)C(F)(F)F)c2ccccc2n1C	-18	101	105	·
O=C(NCC1CCCO1)c1cnn2c(C(F)(F)F)cc(-c3ccccc3)nc12 (stereo not drawn)	-25	102	103	-10

Compound activity: PubChem, ICCB-Longwood Screening Facility, Harvard Medical School
